High-throughput results as filed in PubChem.
T cruzi repl = T. cruzi replication inhibition; AID 1885; inhibition, % (test concentration not listed); T. cruzi beta-gal in NIH3T3, luminescence, 90 h; actives 1.4% (n = 300,000);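 active = mean inhibition across valid replicates above about 55%, limit read from the data; inconclusive = mean below that limit but half or more replicates reach it; inactive = mean below it, under half of replicates reach it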;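 note: signal also drops with host cell toxicity which is not excluded here; 0% = plate median of DMSO wells and 100% = zero luminescence signal; higher percent means less beta-gal luminescence so fewer parasites; stock transfer was 50 nL into about 50 µL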
AF4-AF9 inh = MLL-AF4/AF9 protein interaction inhibition. P42568. AlphaScreen, biotin-AF4 peptide binding to FLAG-AF9. inhibition, % at 10 µM. actives 0.47% (n = 350,000). AID 651704;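 active = every replicate reaching a set inhibition limit, whatever the replicate mean, cut at about 25% in these data; inconclusive = mean inhibition reaches that limit but some replicates miss it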;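 note: 0% = plate neutral control median and 100% = total signal loss; the record names both 10 and 1 µM as test concentration; the first replicate is given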
Target sequence (P42568 whole entry, looked up): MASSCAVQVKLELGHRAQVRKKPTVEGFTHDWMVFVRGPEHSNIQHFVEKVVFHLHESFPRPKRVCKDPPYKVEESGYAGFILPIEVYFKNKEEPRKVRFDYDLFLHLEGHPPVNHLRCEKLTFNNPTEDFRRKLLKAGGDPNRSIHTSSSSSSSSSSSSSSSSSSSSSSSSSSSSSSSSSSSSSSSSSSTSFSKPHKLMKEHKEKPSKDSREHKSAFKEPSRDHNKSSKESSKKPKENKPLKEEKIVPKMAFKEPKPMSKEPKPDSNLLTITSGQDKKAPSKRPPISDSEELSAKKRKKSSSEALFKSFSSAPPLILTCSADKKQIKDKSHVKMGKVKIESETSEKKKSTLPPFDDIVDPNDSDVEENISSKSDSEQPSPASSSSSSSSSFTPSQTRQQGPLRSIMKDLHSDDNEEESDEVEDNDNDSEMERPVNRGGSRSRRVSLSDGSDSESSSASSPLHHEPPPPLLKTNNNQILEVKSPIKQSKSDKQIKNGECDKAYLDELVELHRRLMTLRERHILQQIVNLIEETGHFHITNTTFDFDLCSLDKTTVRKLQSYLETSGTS
Calb FLC = C. albicans growth modulation with fluconazole. actives 0.57% (n = 300,000). AID 1979. growth inhibition, % (no concentration beside the values). C. albicans CaCi-2 (fluconazole-resistant clinical isolate) + fluconazole, Alamar Blue growth, 48 h;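 active = most replicates above 75%; inconclusive = exactly half above 75%; inactive = most below 75%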;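 note: all wells also contain fluconazole at 8 µg/ml as a sub-toxic cotreatment; 0% = median of DMSO wells and 100% = median of geldanamycin control wells; wells of about 8 µL received 7.5 nL stock; the first replicate is given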
Bfl-1 A1 inh = inhibitors of the anti-apoptotic protein A1, read as caspase activation; MEF A1-2A-BIM cells, Caspase-Glo 3/7 luminescence, 3 h; percent of clofoctol response, vehicle zero; caspase activation, % (no concentration beside the values); actives 0.066% (n = 330,000); AID 2462;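 active = over half of replicate activation scores above 10%, or exactly half above 10 with the replicate mean above 10; inconclusive = replicate mean below 10 yet half the replicates above 10; inactive = over half of replicates below 10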;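 note: wells of about 30 µL received 50 nL stock; many hits fall short of the cut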
Vif A3G = HIV-1 Vif–A3G interaction blockers – biochemical, TR-FRET, GST-Vif 1-94, biotin-A3G peptide, dose response retest, primary screen (AID 1117319); TR-FRET GST-Vif / biotin-A3G peptide binding; higher % means a stronger effect; test concentration not given here; strong numbers were not always called active; inhibition, %, or IC50 in µM where a hit was titrated; actives 0.57% (n = 260,000);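 active = above the screen mean plus three standard deviations and confirmed in dose response; inconclusive = results disagree or hit not tested in dose response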;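 note: Vif residues 1-94 fused to GST binding biotinylated APOBEC3G peptide 110-148; 0% = full assay without inhibitor and 100% = GST in place of GST-Vif; retest series ran down from 100 µM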
RanGTP-Imp inh = disruptors of Ran-importin-beta complex formation – biochemical, FRET, CFP-Ran, YFP-importin-beta, homogeneous, primary screen; cell-free CFP-Ran/YFP-importin-beta FRET ratio; inhibition, % (test concentration not listed); actives 1.1% (n = 300,000); AID 2216;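 active = most replicates above 15%; inconclusive = exactly half above 15%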;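 note: 0% = DMSO wells and 100% = Ran loaded with GDP instead of GTP; wells of about 40 µL received 100 nL stock; the first replicate is given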
Ecoli rRNA inh = inhibitors of bacterial rRNA selective over humanized ribosomes; E. coli WT GFP vs humanized-ribosome RFP mutants, fluorescence, 24 h; active compounds read low; DMSO median 0, no signal -100; GFP signal change (wild-type ribosome), % (test concentration not listed); actives 1.6% (n = 350,000); AID 720706;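 active = significant combined selectivity score with lowered wild-type GFP, culture density cut under 30%, mutant RFP and density less affected; inactive = any of these conditions unmet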; note: one replicate is shown; some compounds called inactive have numbers as strong as hits
Beta cell apopt = blocks beta cell apoptosis; AID 435005; INS-1E cytokine-induced death, ATP luminescence, 48 h; percent of positive-control rescue, neutral wells zero; actives 0.8% (n = 300,000); protection from apoptosis, % (concentration not given with the values);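 active = all replicates at 75% or more, or half of them and the mean; inconclusive = half reach 75% but not the mean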;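 note: 0% = cytokine-treated negative control wells and 100% = positive control rescue; higher means more ATP so stronger rescue from cytokine killing; wells of about 40 µL received 100 nL stock; the first replicate is given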
Ecoli rRNA inh OD600 = second read-out of Ecoli rRNA inh, no call of its own (marks repeat the call); OD600 change, %; measured here: OD600 growth;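 optical density of the mix in the first replicate; 0 = DMSO median and -100 = no signal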
Ecoli rRNA inh RFP = further read-out of Ecoli rRNA inh, marked with its call; RFP signal change, %; measured here: RFP humanized mutant strains;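 first replicate; 0 = DMSO median and -100 = no signal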
Starred values were filed as active, the others as inactive; ? = inconclusive; . = no result given; & = joins results of further samples. Some of the compounds tested; count on the stated rates, not on these rows.

molecule	T cruzi repl	AF4-AF9 inh	Calb FLC	Bfl-1 A1 inh	Vif A3G	RanGTP-Imp inh	Ecoli rRNA inh	Ecoli rRNA inh OD600	Ecoli rRNA inh RFP	Beta cell apopt
Cc1ccc(C)c(N(C(=O)Cc2cccs2)C(C(=O)NC2CCCC2)c2ccc(C)o2)c1 (stereo unspecified)	-5	.	18	0.2	2%	0.8	.	.	.	5
CCOc1ccc(S(=O)(=O)NCCC(=O)NCC2CCCO2)cc1 (stereo unspecified)	.	0.9	.	-0.9	.	.	26	19	2.1	-5
COC(=O)c1ccc(C2c3[nH]c4ccccc4c3C[C@H]3C(=O)N(C)CC(=O)N23)cc1 (stereo partly specified)	-4	5.2	9	-0.3	-3%	1.7	3	6	3.4	-8
Cc1ccnn1CC(=O)N/N=C/c1c[nH]c2ccccc12	-14	-1.5	-3	0.9	-9%	-0.3	-39*	-6.9*	8.3*	-3
CCCCn1c(CN2C(=O)c3ccccc3C2=O)nc2ccccc2c1=O	4	.	-3	0.4	-2%	1.1	.	.	.	.
CNC(=O)Cc1csc2ccc(C)cc12	-1	-3.8	6	-0.8	-11%	3.4	-11	-19	-2.0	-6
CCCN(CCC)S(=O)(=O)c1ccc(Cl)c(OC)c1	-2	-2.7	-6	0.1	3%	?	-40	-62	-4.6	-6
Cc1c(Br)c([N+](=O)[O-])nn1CC(=O)Nc1ccc2nc3n(c(=O)c2c1)CCCC3	-6	-0.1	-2	0.1	.	0.2	7	-1	-2.0	3
COc1ccc(C(=O)C2CCCN(C(=O)Cn3cncn3)C2)cc1OC (stereo unspecified)	-5	1.8	-5	0.8	.	2.9	8	11	0.8	-3
O=C1OC(N2C(=O)CC[C@H]2C(=O)Nc2ccc(F)c(F)c2)c2ccccc21 (stereo partly specified)	-6	-1.6	-5	-0.6	.	2.4	.	.	.	.
Nn1c(-c2ccco2)n[nH]c1=S	-25	.	-1	0.0	3%	3.4	.	.	.	-1
O=C(NC(=S)Nc1nc(-c2ccccc2)cs1)c1cccs1	9	1.0	2	0.5	.	-2.1	-6	-10	-3.1	1
CC(O)CCC(=O)NCCNC(=O)CCC(C)O (stereo unspecified)	12	.	-16	-0.2	3%	1.6	.	.	.	-2
COCCNC(=S)N1C2CCC1CC(NC(=O)NC13CC4CC(CC(C4)C1)C3)C2 (stereo unspecified)	17	.	-25	0.6	2%	-1.8	.	.	.	0
O=C(NNC(=O)c1cc(-c2ccc(Cl)cc2Cl)nc2ccccc12)Nc1ccccc1	7	.	8	-0.5	1%	-0.4	.	.	.	7
c1ccc2sc(N3CCOCC3)nc2c1	-11	.	10	-2.6	3%	-3.7	.	.	.	-1
O=C1CCN(Cc2nnnn2CC2CCCO2)c2ccccc2N1 (stereo unspecified)	-16	.	1	0.0	6%	?	.	.	.	.
CCOC(=O)C1=C(COC(=O)/C=C/c2ccc(OC)cc2OC)NC(=O)NC1C (stereo unspecified)	-11	3.3	16	0.0	.	0.0	-16	-17	-4.2	-12
COc1c(S(=O)(=O)n2nc(C)cc2C)ccc(Cl)c1Cl	-3	.	-5	0.5	-3%	-1.5	.	.	.	-6
Cc1cccc(NC(=O)C2CCCN(S(=O)(=O)c3cccc4cccnc34)C2)c1 (stereo unspecified)	4	-4.6	-17	-0.3	4%	-2.4	-6	-17	0.0	1
FC(F)(F)c1cc(-c2ccco2)nc(N2CCOCC2)n1	-4	.	-7	-0.4	0%	-0.8	.	.	.	-2
CCOc1ccc(C2/C(=C(\O)c3ccc4c(c3)OCCO4)C(=O)C(=O)N2CCN2CCOCC2)cc1OC (stereo unspecified)	.	0.6	-3	-1.4	.	.	10	13	0.2	-2
O=C(O)c1ccc(CNC(=O)c2ccccc2NC(=O)c2ccc([N+](=O)[O-])cc2)cc1	0	-1.3	-9	-0.9	.	-1.2	12	14	-0.3	-1
COc1ccc(NC(=O)/C(=C\c2cccnc2)NC(=O)c2cccs2)cc1	-16	.	-3	-0.8	.	3.2	.	.	.	-8

Continued; it opens with the 7 that closed the last part.
molecule	T cruzi repl	AF4-AF9 inh	Calb FLC	Bfl-1 A1 inh	Vif A3G	RanGTP-Imp inh	Ecoli rRNA inh	Ecoli rRNA inh OD600	Ecoli rRNA inh RFP	Beta cell apopt
CCOC(=O)C1=C(COC(=O)/C=C/c2ccc(OC)cc2OC)NC(=O)NC1C (stereo unspecified)	-11	3.3	16	0.0	.	0.0	-16	-17	-4.2	-12
COc1c(S(=O)(=O)n2nc(C)cc2C)ccc(Cl)c1Cl	-3	.	-5	0.5	-3%	-1.5	.	.	.	-6
Cc1cccc(NC(=O)C2CCCN(S(=O)(=O)c3cccc4cccnc34)C2)c1 (stereo unspecified)	4	-4.6	-17	-0.3	4%	-2.4	-6	-17	0.0	1
FC(F)(F)c1cc(-c2ccco2)nc(N2CCOCC2)n1	-4	.	-7	-0.4	0%	-0.8	.	.	.	-2
CCOc1ccc(C2/C(=C(\O)c3ccc4c(c3)OCCO4)C(=O)C(=O)N2CCN2CCOCC2)cc1OC (stereo unspecified)	.	0.6	-3	-1.4	.	.	10	13	0.2	-2
O=C(O)c1ccc(CNC(=O)c2ccccc2NC(=O)c2ccc([N+](=O)[O-])cc2)cc1	0	-1.3	-9	-0.9	.	-1.2	12	14	-0.3	-1
COc1ccc(NC(=O)/C(=C\c2cccnc2)NC(=O)c2cccs2)cc1	-16	.	-3	-0.8	.	3.2	.	.	.	-8
CCOC(=O)C1(CCOC)CCN(Cc2cnc(-c3cccc(C)c3)nc2)CC1	16	2.7	-2	0.2	70%	4.9	-5	-8	-0.3	-2
CCOC(=O)c1c(NC(=O)c2ccc(C)cc2)sc2c1CC(C)(C)OC2	13	.	-6	2.2	18%	0.1	.	.	.	.
CCc1cccc(CC)c1N(COC)C(=O)Cn1c(CO)nc2ccccc21	1	.	33	-0.9	?	2.9	.	.	.	-3
COc1ccc(NC(=O)c2ccc(Cl)c(S(=O)(=O)NCC3CCCO3)c2)c(OC)c1 (stereo unspecified)	8	6.3	-8	-0.1	.	-2.6	1	3	0.6	2
CC(=O)c1c(C)[nH]c(C(=O)N2CCN(C(=O)c3ccco3)CC2)c1C	-6	.	9	0.6	2%	2.5	.	.	.	-3
COc1ccc(/C=N/NC(=O)c2nn(-c3ccc(Cl)cc3)c(=O)c3c(N)scc23)cc1	-8	.	35	-0.4	?	-0.6	.	.	.	5
CCN(CC)C(=O)N1CCN(S(=O)(=O)c2ccc(C)c(C)c2)CC1	-3	.	-15	0.1	-3%	-1.5	.	.	.	.
C=CCN(CC=C)C(=S)NC(=O)Cc1cccc2ccccc12	2	1.1	-15	0.7	1%	1.6	-61	-79	-24	-5
CCOC(=O)C1(Cc2cccc(OC)c2)CCCN(S(=O)(=O)c2cccnc2)C1 (stereo unspecified)	7	-1.1	-6	0.3	-3%	1.4	4	-2	-3.7	-3
CC1CC/C(=N/Nc2ccccc2)C(=O)N1 (stereo unspecified)	-7	2.4	-7	0.1	.	-3.3	4	8	-5.3	6
c1ccc2c3c(c(CN4CCCCC4)cc2c1)COC3	4	2.3	12	-0.5	.	2.4	13	1	3.1	4
CC(=O)C1C(c2ccccc2)c2c(noc2C)CC1(C)O (stereo unspecified)	-1	-2.7	-5	2.2	.	4.1	18	10	5.3	-1

3 of the entries above in order of their number in Ecoli rRNA inh, ascending.
molecule	AF4-AF9 inh	Vif A3G	RanGTP-Imp inh	Ecoli rRNA inh	Ecoli rRNA inh OD600	Ecoli rRNA inh RFP
Cc1ccnn1CC(=O)N/N=C/c1c[nH]c2ccccc12	-1.5	-9%	-0.3	-39*	-6.9*	8.3*
CCOC(=O)C1(Cc2cccc(OC)c2)CCCN(S(=O)(=O)c2cccnc2)C1 (stereo unspecified)	-1.1	-3%	1.4	4	-2	-3.7
c1ccc2c3c(c(CN4CCCCC4)cc2c1)COC3	2.3	.	2.4	13	1	3.1

(cont.)
molecule	T cruzi repl	AF4-AF9 inh	Calb FLC	Bfl-1 A1 inh	Vif A3G	RanGTP-Imp inh	Ecoli rRNA inh	Ecoli rRNA inh OD600	Ecoli rRNA inh RFP	Beta cell apopt
Cc1ccc2c(c1)N(CC(=O)NCCc1ccccc1)C(=O)c1cccnc1O2	-7	0.0	-1	0.2	.	?	10	-3	3.3	-6
CC(C)C[C@H](NC(=O)c1nc[nH]c1C(=O)NCc1ccc(CNC(=O)OC(C)(C)C)cc1)C(=O)OCc1ccccc1	-9	-3.9	6	-0.7	.	-2.7	18	10	-3.9	-5
Cc1ccc(C2=NN=C(NC(=O)CSc3nc(C)cc(C)n3)SC2)cc1	17	-3.8	9	0.3	17%	3.6	-6	-13	-0.1	51
Cc1noc(C)c1COc1cccc(C(=O)OCC(=O)NCCN2C(=O)CSC2=O)c1	-10	-1.2	-1	0.3	0%	2.9	9	7	3.3	2
COc1cc(/C=C(\C#N)C(=O)c2c[nH]c3ccccc23)cc(OC)c1O	-8	5.7	25	0.5	.	1.1	2	8	9.7	-9
CC(=O)c1ccc(OCC(O)CN2C(C)CCCC2C)cc1 (stereo unspecified)	-6	-0.3	-3	1.4	6%	4.4	7	10	-4.2	-7
COc1ccccc1NC(=O)CSc1nc2sc(C)c(C)c2c(=O)n1Cc1ccco1	37	.	-1	0.8	-3%	-3.3	.	.	.	3
COc1ccc(NC(=O)C2CC(=O)N(C)C(=Nc3ccc4c(c3)OCO4)S2)cc1 (stereo unspecified)	13	-38	6	0.3	7%&-3%	5.1	-10	-10	4.0	-1
CN(CC(=O)Nc1ccc(N2CCOCC2)cc1)C(=O)c1cc(S(=O)(=O)N(C)C)ccc1Cl	-2	-1.0	5	-0.5	.	-3.1	13	12	3.7	0
O=C(NC(=S)NCC1CCCO1)c1cccc([N+](=O)[O-])c1 (stereo unspecified)	-10	.	48	0.2	.	2.9	.	.	.	.
Cc1ccc(N(C(=O)c2ccc(Br)o2)C2C=CS(=O)(=O)C2)cc1 (stereo unspecified)	-18	2.9	-7	0.1	0%	-2.9	9	6	-4.0	-6
COc1ccccc1N1CCN(C(=O)CCC(=O)N2CCN(c3ccccc3OC)CC2)CC1	?	1.5	15	0.2	.	2.6	3	0	-2.3	2
C[N+](C)(CC#Cc1ccccc1)CC(=O)c1ccccc1	0	.	-25	0.3	-3%	2.0	.	.	.	-5
COc1ccc2[nH]c(=O)c(CN(Cc3cccs3)C(=S)Nc3ccccc3)cc2c1	37	.	-11	1.2	-9%	-0.4	.	.	.	10
COc1ccc(CN2CCN(S(=O)(=O)c3ccc(C)cc3)CC2)cc1OC	1	-0.8	31	0.4	.	6.8	.	.	.	7
